AF4-AF9 inh – inhibitors of human MLL-AF4/AF9 interaction; AlphaScreen, biotin-AF4 peptide binding to FLAG-AF9; inhibition, % at 10 µM; 350,000 compounds, 0.47% hits; AID 651704;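 active = every replicate reaching a set inhibition limit, whatever the replicate mean, cut at about 25% in these data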;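 also: 0% = plate neutral control median and 100% = total signal loss; the record names both 10 and 1 µM as test concentration; the first replicate is given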
Target sequence (P42568 whole entry, looked up): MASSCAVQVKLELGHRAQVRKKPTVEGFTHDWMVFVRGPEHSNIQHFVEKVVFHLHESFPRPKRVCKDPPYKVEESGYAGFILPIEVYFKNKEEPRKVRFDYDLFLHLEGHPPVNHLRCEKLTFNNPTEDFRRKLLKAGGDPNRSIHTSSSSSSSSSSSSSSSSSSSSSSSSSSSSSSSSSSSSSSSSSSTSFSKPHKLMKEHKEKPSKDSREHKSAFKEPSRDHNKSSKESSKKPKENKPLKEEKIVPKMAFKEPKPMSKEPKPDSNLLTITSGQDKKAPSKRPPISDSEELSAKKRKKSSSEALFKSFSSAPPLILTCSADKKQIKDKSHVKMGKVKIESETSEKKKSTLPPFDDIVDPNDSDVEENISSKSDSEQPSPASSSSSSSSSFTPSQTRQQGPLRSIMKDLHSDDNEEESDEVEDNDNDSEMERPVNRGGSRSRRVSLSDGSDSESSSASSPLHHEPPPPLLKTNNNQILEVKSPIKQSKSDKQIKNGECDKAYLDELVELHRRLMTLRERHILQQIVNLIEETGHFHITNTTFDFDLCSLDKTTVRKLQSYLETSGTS
Ecoli rRNA inh – selective bacterial rRNA inhibition in E. coli | 350,000 compounds, 1.6% hits | AID 720706 | E. coli WT GFP vs humanized-ribosome RFP mutants, fluorescence, 24 h; stronger effect = lower value; DMSO median 0, no signal -100 | GFP signal change (wild-type ribosome), % (test concentration not listed);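 active = significant combined selectivity score with lowered wild-type GFP, culture density cut under 30%, mutant RFP and density less affected; inactive = any of these conditions unmet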; also: one replicate is shown; some compounds called inactive have numbers as strong as hits
Ecoli rRNA inh OD600 – further read-out of Ecoli rRNA inh, marked with its call; OD600 change, %; measured here: OD600 growth;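 optical density of the mix in the first replicate; 0 = DMSO median and -100 = no signal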
Ecoli rRNA inh RFP – further read-out of Ecoli rRNA inh, marked with its call; RFP signal change, %; measured here: RFP humanized mutant strains;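 first replicate; 0 = DMSO median and -100 = no signal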
Numbers without * were called inactive; & = joins results of further samples. These rows are one share of the data. The share of hits here may be higher or lower than overall.

AF4-AF9 inh | Ecoli rRNA inh | Ecoli rRNA inh OD600 | Ecoli rRNA inh RFP | smiles
0.5 | -2 | -5 | 0.0 | C[C@H](CO)N1C[C@H](C)[C@H](CN(C)C(=O)CCC(F)(F)F)OCCCC[C@H](C)Oc2ccc(NC(=O)C3CCCCC3)cc2C1=O
-4.4 | 6 | 18 | -2.4 | CCCN(C)C1CN(Cc2cn(Cc3ccc(OC)cc3)nn2)S(=O)(=O)C1 (configuration not stated)
-0.9 | 5 | 9 | -0.5 | Cc1ccc(S(=O)(=O)N(C)C[C@@H]2Oc3ccc(NC(=O)Nc4ccc(C(F)(F)F)cc4)cc3CC(=O)N([C@@H](C)CO)C[C@H]2C)cc1
2.4 | -3 | -1 | 3.7 | Cc1noc(C)c1S(=O)(=O)Nc1ccc2c(c1)C(=O)N([C@H](C)CO)C[C@@H](C)[C@@H](CN(C)Cc1ccncc1)OCCCC[C@H](C)O2
-0.2 | 2 | 1 | 0.0 | COCC(=O)Nc1ccc2c(c1)C(=O)N(C)C[C@@H](OC)[C@H](C)CN(CC1CC1)[C@@H](C)CO2
-18 | 1 | -2 | -1.6 | O=C(C[C@@H]1CC[C@@H](NC(=O)C2CCOCC2)[C@@H](CO)O1)NCc1ccccc1Cl
-2.4 | 5 | 20 | -1.2 | CN(C)c1ccc2c(c1)[C@H]1C[C@@H](CC(=O)NCc3ccncc3)O[C@@H](CO)[C@H]1O2
7.4 | -1 | 4 | 6.9 | COc1ccc(NC(=O)N2CC(=O)N3[C@H](CO)[C@@H](c4ccc(/C=C/c5ccccc5)cc4)[C@@H]3C2)cc1
-0.6 | -3 | -7 | -0.5 | C[C@H](CO)N1C[C@H](C)[C@@H](CN(C)C(=O)Nc2ccccc2F)Oc2cc(-c3ccc(C(=O)N(C)C)cc3)ccc2S1(=O)=O
-1.0 | 0 | 1 | -0.6 | Cc1ccc(S(=O)(=O)Nc2ccc3c(c2)C(=O)N([C@H](C)CO)C[C@H](C)[C@H](CN(C)S(=O)(=O)c2ccccc2)OCCCC[C@H](C)O3)cc1
-1.8 | 1 | 8 | 5.7 | COc1ccc2c3c([nH]c2c1)[C@H](CO)N(Cc1nccs1)CC31CCN(C(=O)C2CCOCC2)CC1
-1.2 | 3 | 4 | -3.2 | CO[C@H]1CN(C)C(=O)c2ccc(NC(=O)c3cccc(F)c3)cc2OC[C@@H](C)N(C(C)=O)C[C@H]1C
-1.4 | 4 | 10 | -0.1 | CS(=O)(=O)N1CC2(C1)[C@H](c1ccccc1)[C@H](CO)N2CCC(F)(F)F
4.0 | -22 | -50 | 21 | C[C@H]1CN([C@@H](C)CO)S(=O)(=O)c2ccc(C3=CCCCC3)cc2O[C@@H]1CN(C)C(=O)c1ccccc1
-4.3 | -5 | -4 | 4.9 | COc1cccc(C#Cc2ccc3c(c2)[C@H]2[C@H](CCN2C(=O)Cc2ccccc2)[C@H](CO)N3)c1
5.4 | 0 | 8 | -1.3 | Cc1noc(C)c1S(=O)(=O)N(C)C[C@@H]1Oc2ccc(NS(=O)(=O)c3cccs3)cc2CC(=O)N([C@@H](C)CO)C[C@@H]1C
6.4 | -20* | -8.2* | 0.7* | CC1(C(=O)NS(=O)(=O)c2ccc3c(c2)CCO3)CCN1C(=O)c1ccccc1CCc1ccccc1 (configuration not stated)
4.8 | 2 | 0 | 0.5 | C[C@@H]1CN([C@H](C)CO)C(=O)c2cccc(NC(=O)C3CCCCC3)c2O[C@@H]1CN(C)C(=O)Nc1ccc2c(c1)OCO2
1.2 | 2 | 2 | 1.4 | C[C@@H]1CCCCO[C@@H](CN(C)Cc2ccccc2)[C@H](C)CN([C@@H](C)CO)C(=O)c2cc(NC(=O)Cc3ccccc3)ccc2O1
1.9 | -22 | -43 | 9.0 | C[C@@H]1CN([C@H](C)CO)S(=O)(=O)c2ccc(Br)cc2O[C@@H]1CN(C)S(=O)(=O)c1ccc(F)cc1
0.4&3.1 | -1&4 | 0&6 | -0.3&-0.9 | COc1ccccc1-c1cn(CC[C@@H]2CC[C@H](NC(=O)C3CCC3)[C@@H](CO)O2)nn1
0.0 | 2 | 7 | -1.0 | Cc1ccc(-c2ccc([C@H]3[C@H](CO)N4C(=O)CN(C(=O)c5ccncc5)C[C@@H]34)cc2)cc1
-0.4 | 2 | -3 | 3.5 | C[C@@H]1CN([C@@H](C)CO)C(=O)c2cc(NC(=O)Cc3cn(C)c4ccccc34)ccc2O[C@H]1CN(C)S(=O)(=O)c1ccc(F)cc1
0.5 | -3 | -4 | 4.6 | COc1cccc(-c2ccc3c(c2)O[C@H](CN(C)C(=O)C2CCCCC2)[C@H](C)CN([C@H](C)CO)S3(=O)=O)c1
-1.2 | 4 | 5 | -4.5 | N#C[C@@H]1[C@@H](c2ccccc2)[C@H](CO)N1C(=O)C1CCCC1
1.9 | 6 | -17 | 0.8 | CC(C)CC#Cc1cnc2c(c1)C(=O)N([C@H](C)CO)C[C@H](C)[C@H](CN(C)Cc1ccc3c(c1)OCO3)O2
-0.4 | 1 | 3 | 0.1 | C[C@H]1CN([C@@H](C)CO)C(=O)c2ccccc2-c2ccccc2CO[C@@H]1CN(C)C(=O)Nc1ccnc(N2CCOCC2)c1
-0.2 | -5 | -23 | -2.4 | CCS(=O)(=O)N1CC2(C1)CN(S(=O)(=O)c1ccc(C)cc1)[C@@H](CO)c1[nH]c3cc(OC)ccc3c12
-2.0 | 0 | -1 | 1.0 | CO[C@H]1CN(C)C(=O)c2ccc(NC(=O)C3CC3)cc2OC[C@@H](C)N(Cc2ccccc2)C[C@H]1C
-16 | 1 | 3 | -0.1 | O=C(C[C@@H]1CC[C@@H](NC(=O)CCN2CCCCC2)[C@H](CO)O1)Nc1nccs1
-3.8 | -1 | -2 | -1.5 | O=C(C[C@H]1C=C[C@H](NC(=O)CCN2CCCCC2)[C@@H](CO)O1)Nc1ccccc1
-2.0 | -1 | -8 | 4.1 | COc1ccc(CN(C)C[C@H]2OCCCC[C@@H](C)Oc3ccc(NC(=O)Nc4cccc5ccccc45)cc3C(=O)N([C@H](C)CO)C[C@@H]2C)cc1
0.4 | -3 | 1 | 1.0 | O=C(Nc1ccc2c(c1)[C@@H]1C[C@H](CC(=O)N3CCOCC3)O[C@@H](CO)[C@@H]1O2)Nc1ccccc1F
-2.0 | 2 | 3 | -1.5 | O=C(C1CCC1)N1CC(=O)N2[C@H](C1)[C@H](c1ccc(-c3cccnc3)cc1)[C@@H]2CO
-5.2 | -21 | -61 | 15 | O=C(CC1CC1)N1CC(=O)N2[C@H](CO)[C@H](c3ccc(C#Cc4ccc(F)cc4)cc3)[C@@H]2C1
-0.6 | 1 | 3 | 0.9 | C[C@@H]1CN([C@@H](C)CO)C(=O)c2cccc(NC(=O)Nc3ccc(F)cc3)c2O[C@@H]1CN(C)Cc1ccc(C(=O)O)cc1

Ordered by the number under AF4-AF9 inh (high to low): three from the list above
AF4-AF9 inh | Ecoli rRNA inh | Ecoli rRNA inh OD600 | Ecoli rRNA inh RFP | smiles
1.9 | 6 | -17 | 0.8 | CC(C)CC#Cc1cnc2c(c1)C(=O)N([C@H](C)CO)C[C@H](C)[C@H](CN(C)Cc1ccc3c(c1)OCO3)O2
-1.2 | 4 | 5 | -4.5 | N#C[C@@H]1[C@@H](c2ccccc2)[C@H](CO)N1C(=O)C1CCCC1
-16 | 1 | 3 | -0.1 | O=C(C[C@@H]1CC[C@@H](NC(=O)CCN2CCCCC2)[C@H](CO)O1)Nc1nccs1

Carrying on.
AF4-AF9 inh | Ecoli rRNA inh | Ecoli rRNA inh OD600 | Ecoli rRNA inh RFP | smiles
1.1 | -34 | -48 | 4.9 | CC(C)C[C@H]1CN([C@@H](Cc2ccc(O)cc2)CN2CCC[C@H]2CN2C(=O)C(=O)NC[C@@H]2Cc2ccccc2)C(=O)C(=O)N1CC1CCCCC1
0.2 | 1 | -8 | -3.3 | C[C@@H]1CCCCO[C@H](CN(C)S(=O)(=O)c2ccc(F)cc2)[C@@H](C)CN([C@H](C)CO)C(=O)c2cc(NS(=O)(=O)c3ccc(Cl)cc3)ccc2O1
7.9 | -32 | -50 | 24 | Cc1ccc(-c2ccc3c(c2)O[C@@H](CN(C)Cc2ccccn2)[C@@H](C)CN([C@H](C)CO)S3(=O)=O)cc1
-1.1 | -2 | 2 | -2.5 | C[C@H](CO)N1C[C@H](C)[C@H](CN(C)Cc2ccc(C(=O)O)cc2)OCCCC[C@H](C)Oc2ccc(NC(=O)Nc3ccc(C(F)(F)F)cc3)cc2C1=O
-0.3 | 3 | 3 | 20 | Cn1cnc(CCNC(=O)C[C@@H]2CC[C@H]3[C@@H](COC[C@H](O)CN3C(=O)C3CCCC3)O2)c1
-1.2 | 5 | -7 | -1.4 | CCCNC(=O)N1[C@H](C#N)[C@@H](c2ccc(-c3ccccc3F)cc2)[C@H]1CO
9.5 | -13 | -28 | 0.8 | CCCC#Cc1ccc2c(c1)O[C@@H](CN(C)Cc1cncnc1)[C@H](C)CN([C@H](C)CO)S2(=O)=O
3.2 | -2 | -2 | -4.2 | COc1ccc(Cc2c(-c3ccccc3)nc3ccc(Br)cn23)c(C)c1
-3.4 | 9 | 8 | 0.9 | C=C(C)Cn1c2ccc(NC(=O)CCc3cccc(Cl)c3)cc2c(=O)n1C
1.2 | 0 | 4 | -4.8 | COc1ccc2c3c([nH]c2c1)[C@H](CO)N(C(=O)c1cccnc1)CC31CN(Cc2cccnc2)C1
-0.1 | 1 | 1 | -0.9 | O=C(N[C@@H]1CC[C@H](CCNS(=O)(=O)c2ccccc2)O[C@@H]1CO)c1cnccn1
-12 | 2 | 3 | -1.2 | CN(C)CC(=O)N[C@@H]1CC[C@H](CC(=O)NCCN2CCCCC2)O[C@@H]1CO
-1.9 | -1 | 2 | -1.3 | COc1cc(CCC(C)=O)ccc1OC(=O)c1c(-c2c(F)cccc2Cl)noc1C
-0.1 | 2 | 0 | -1.0 | CCNC(=O)C1(C)CCCN1Cc1ccccc1Cl (configuration not stated)
-1.2 | -2 | -3 | -2.4 | O=C(C[C@@H]1C=C[C@H](NC(=O)Nc2ccc(F)cc2)[C@H](CO)O1)NCc1cccc(F)c1
-2.5 | 4 | 10 | 0.3 | CC=Cc1ccc2n(c1=O)C[C@H]1[C@H](CO)[C@@H](C(=O)NCC)[C@@H]2N1C(=O)Nc1cc(F)ccc1F (mixture of isomers)

Grouped by structure: the entries above with a Cl atom (five)
AF4-AF9 inh | Ecoli rRNA inh | Ecoli rRNA inh OD600 | Ecoli rRNA inh RFP | smiles
-18 | 1 | -2 | -1.6 | O=C(C[C@@H]1CC[C@@H](NC(=O)C2CCOCC2)[C@@H](CO)O1)NCc1ccccc1Cl
0.2 | 1 | -8 | -3.3 | C[C@@H]1CCCCO[C@H](CN(C)S(=O)(=O)c2ccc(F)cc2)[C@@H](C)CN([C@H](C)CO)C(=O)c2cc(NS(=O)(=O)c3ccc(Cl)cc3)ccc2O1
-3.4 | 9 | 8 | 0.9 | C=C(C)Cn1c2ccc(NC(=O)CCc3cccc(Cl)c3)cc2c(=O)n1C
-1.9 | -1 | 2 | -1.3 | COc1cc(CCC(C)=O)ccc1OC(=O)c1c(-c2c(F)cccc2Cl)noc1C
-0.1 | 2 | 0 | -1.0 | CCNC(=O)C1(C)CCCN1Cc1ccccc1Cl (configuration not stated)

Bioassay records: PubChem BioAssay, Broad Institute
